High-throughput results: PubChem BioAssay, several laboratories
YopH PTP inh – YopH (Yersinia) phosphatase inhibition | fluorescence Ex485/Em525 | inhibition, %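 (about 10 µM by stock and volumes)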 | 140,000 tested, 0.16% active;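 active means inhibition of 50% or more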;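 further: controls were vehicle for no effect and minimum signal wells for full effect; inactives centre near -20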
Arbovirus inh – antivirals against arbovirus infection. arbovirus infection cell-based antiviral screen. inhibition, % at 10 µM. 200,000 tested, 0.37% active. AID 1251;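 active means inhibition from about 30%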;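 further: bluetongue infection of BSR cells; cell survival read as ATP light after 72 h; 0% = infected wells without compound and 100% = uninfected wells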
RecA splice inh – inhibitors of M. tuberculosis RecA intein splicing. cell-free RecA intein splicing, fluorescence. P9WHJ3. 290,000 tested, 0.75% active. AID 2221. inhibition, %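 (about 9 µM by stock and volumes)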; in the data active means inhibition above about 30%; inconclusive means no clear call, values can overlap the other calls;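 further: 0% = vehicle wells and 100% = reference inhibitor control wells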
Target sequence (P9WHJ3 whole entry, looked up, canonical isoform): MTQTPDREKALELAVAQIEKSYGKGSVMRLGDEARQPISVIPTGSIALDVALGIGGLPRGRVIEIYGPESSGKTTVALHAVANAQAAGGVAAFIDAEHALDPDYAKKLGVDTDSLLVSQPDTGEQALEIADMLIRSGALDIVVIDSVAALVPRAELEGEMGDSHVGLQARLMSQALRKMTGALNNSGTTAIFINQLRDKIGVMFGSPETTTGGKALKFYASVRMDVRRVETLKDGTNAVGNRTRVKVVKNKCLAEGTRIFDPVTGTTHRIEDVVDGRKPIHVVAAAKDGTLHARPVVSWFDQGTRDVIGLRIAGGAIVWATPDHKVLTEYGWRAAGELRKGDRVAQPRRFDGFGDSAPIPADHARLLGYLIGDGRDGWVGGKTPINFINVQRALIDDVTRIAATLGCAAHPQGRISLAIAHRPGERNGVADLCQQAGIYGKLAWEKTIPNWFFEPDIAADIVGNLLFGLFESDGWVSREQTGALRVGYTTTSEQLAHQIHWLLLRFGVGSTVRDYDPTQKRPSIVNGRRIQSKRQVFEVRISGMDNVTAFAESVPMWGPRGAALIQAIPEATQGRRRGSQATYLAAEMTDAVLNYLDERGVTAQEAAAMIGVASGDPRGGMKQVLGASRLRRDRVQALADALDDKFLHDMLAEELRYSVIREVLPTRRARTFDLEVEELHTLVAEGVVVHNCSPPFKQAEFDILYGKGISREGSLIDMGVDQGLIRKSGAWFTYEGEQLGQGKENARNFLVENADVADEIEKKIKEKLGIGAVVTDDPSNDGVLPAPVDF
Mtb bLac sens – beta-lactam sensitization of Mtb H37Rv | AID 434955 | inhibition, % at 25 µM | 330,000 tested, 0.27% active | M. tuberculosis H37Rv growth with meropenem, percent inhibition; hits of this screen are not shown here;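 active means about 74% or more and at least 40 points above the plate without the antibiotic, then above 30% in a dose series; inconclusive means first-round hits that could not be retested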;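 further: growth measured after seven days incubation then overnight dye step; 0% = bacteria only wells and 100% = bacteria with antibiotic; twin plates without the antibiotic show which effects depend on it; some results filed as inactive read as strong as hits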
Mtb H37Rv – M. tuberculosis H37Rv growth inhibitors, H37Rv strain (AID 1626); M. tuberculosis H37Rv growth inhibition; higher % means a stronger effect; inhibition, % at 10 µM, or IC50 in µM where a hit was titrated; 220,000 tested, 0.95% active;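 active means confirmed in a dose series; inconclusive means inhibition above 80% but not taken into the dose series; inactive means below 80% or under 30% at every dose of the series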;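 further: bacteria incubated seven days before Alamar blue readout; 0% = bacteria only wells and 100% = bacteria with antibiotic wells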
An asterisk follows results filed as active; u = inconclusive; x = no result given. This is a subset (hit frequency here may not be typical).

Every second line gives: YopH PTP inh | Arbovirus inh | RecA splice inh | Mtb bLac sens | Mtb H37Rv
O=c1[nH]c(=O)n(Cc2ccco2)c2c1C(C(F)(F)F)(C(F)(F)F)N=C(Cc1ccccc1)N2
 : -69.8 | -5.4 | -1.7 | -0.2 | 8.7%
COc1ccc(S(=O)(=O)Nc2cc(C)c(O)cc2C(C)C)cc1
 : -17.2 | -26.8 | 1.6 | 5.5 | 4.5%
CCCCn1c(N)c(N(CCOC)C(=O)CN2c3ccccc3CC2C)c(=O)[nH]c1=O (centres undefined)
 : x | 14.6 | -1.7 | 3.3 | 11.0%
Cc1ccc(OCc2cc(C(=O)N3CCc4sccc4C3)no2)cc1C
 : x | x | 1.7 | 2.0 | x
COc1ccc(CNCC(=O)Nc2cc(OC)cc(OC)c2)cc1
 : x | x | -2.0 | 0.3 | x
CCOC(=O)c1sc(NC(=O)c2c(C)nn(Cc3ccccc3)c2C)cc1C
 : -4.2 | -20.7 | x | 47.7 | 1.6%
COc1ccnc(N=CNOCc2ccc(C)cc2)c1C#N
 : 4.0 | 5.2 | 0.1 | -2.3 | -4.5%
CCCCOC(=O)c1ccc(NC(=O)COC(=O)CSc2nc(C)cc(C)n2)cc1
 : -20.4 | -3.4 | -0.2 | 77.6 | 79.2%
O=[N+]([O-])c1ccc2nonc2c1Nc1cccc(F)c1
 : x | x | 0.7 | 4.4 | x
O=C(COC(=O)C1(c2ccccc2F)CCCC1)N1CCOCC1
 : -13.8 | 6.6 | -0.6 | 4.8 | 2.5%
Cc1ccc(S(=O)(=O)N2CCOC23CCN(C(=O)c2ccc(Cl)cc2Cl)CC3)cc1
 : x | x | 6.2 | 3.4 | x
O=C(COC(=O)c1cc(=O)[nH]c2ccccc12)NC1CCCC1
 : x | 11.6 | -1.2 | 0.2 | -1.5%
CCOC(=O)C1=C(CS(=O)(=O)c2ccc(C)cc2)NC(=O)NC1c1cc(OC)c(OC)c(OC)c1 (centres undefined)
 : x | x | 0.1 | -2.9 | x
C/C(CC(=O)Nc1cccc(Cl)c1Cl)=N\NC(=O)c1ccccc1Br
 : x | 2.5 | -2.7 | 5.7 | -4.3%
CN1C(=O)CC(P(=O)(c2ccccc2)c2ccccc2)N(C)C1=O (centres undefined)
 : 18.1 | 4.8 | -2.5 | -2.3 | -5.2%
COc1ccc2nc(C)cc(N3CCC(C(N)=O)CC3)c2c1
 : x | 2.6 | 1.2 | -11.4 | 0.3%
COC(=O)C1=C(N)Oc2cc(C)n(CCc3ccccc3)c(=O)c2C1c1cccnc1 (centres undefined)
 : -11.7 | -0.7 | 0.8 | 5.7 | -6.8%
NC(=O)c1ccc(NC(=O)CN2CCN(c3ccccc3)CC2)cc1
 : x | x | -1.5 | 4.5 | x
CCOC(=O)C(NC(=O)c1cccc(Cl)c1)(OCc1ccccc1)C(F)(F)F (centres undefined)
 : -23.1 | 6.9 | 3.8 | 0.3 | -0.6%
CCn1cnc2cc(NS(=O)(=O)c3ccc(OC)c(OC)c3)ccc21
 : x | x | 4.8 | -4.9 | x
CCn1cc(CN2CCCC(C(=O)Nc3cccc(-c4cc5ccccc5[nH]4)c3)C2)cn1 (centres undefined)
 : x | x | 4.6 | 1.7 | x
COc1ccc(OC)c(Nc2cc(-c3ccccc3)nc(N)n2)c1
 : -31.3 | -23.3 | -1.4 | 74.2 | 10.8%
O=C(Nc1ccc(Cl)c(C(F)(F)F)c1)C(=O)N1CCCCC1
 : -19.6 | 4.6 | -4.2 | -3.0 | -4.1%
Cc1nc(SCC(=O)NC(C)(C#N)C2CC2)c2c(-c3cccs3)csc2n1 (centres undefined)
 : -28.7 | 2.6 | 5.2 | -1.8 | -2.5%
COc1ccc(N2CCN(C(=O)CNC(=O)c3ccc(Br)o3)CC2)cc1
 : x | x | -1.7 | -2.1 | x
COCCNc1ccnc2c(Cl)cccc12
 : -6.9 | 11.1 | x | -4.0 | 5.5%
O=[N+]([O-])c1ccc(-c2nc(NCC3CCCO3)c3ccccc3n2)cc1 (centres undefined)
 : x | x | -2.5 | 0.5 | 19.8%
Cc1nn(-c2ccccc2)c(Cl)c1C(=O)N(C)CC(=O)Nc1cccc(F)c1
 : x | x | 0.5 | -1.3 | x
COc1ccc(CC(=O)N/N=C/c2cc(Br)cs2)cc1OC
 : x | x | -1.8 | 98.7 | x
O=C(C1CCN(S(=O)(=O)c2cccc3nsnc23)CC1)N1CCc2ccccc21
 : -28.4 | 10.2 | 2.3 | -1.8 | -4.9%

(list continues)
canonical_smiles,YopH PTP inh,Arbovirus inh,RecA splice inh,Mtb bLac sens,Mtb H37Rv
CCc1ccc(CN(C)CC(=O)Nc2ccc3c(c2)CCC3)cc1,x,-1.2,7.8,18.9,48.0%
Cc1nn(CCc2nn[nH]n2)c2nc(C(F)(F)F)cc(C(F)(F)F)c12,-40.2,3.8,-2.8,24.2,3.2%
NS(=O)(=O)c1ccc(CCNC(=O)c2ccccc2Cc2ccccc2)cc1,x,x,-0.2,-0.9,x
COc1ccc2c(c1)-c1nc(/N=C/c3c(O)ccc4ccccc34)sc1CC2,-29.0,2.9,51.1*,x,20.8%
COc1ccc(CCC(=O)NCc2ccco2)cc1,1.8,8.1,2.3,-0.6,-8.3%
CN(c1ccccc1C(=O)N1CCN(c2ccccc2F)CC1)S(=O)(=O)c1ccccc1,x,x,2.0,3.0,x
CCN(CC(=O)Nc1c(F)cccc1F)C(=O)CNC(=O)c1ccc(Br)o1,x,x,-1.0,-12.0,x
Cc1c(C(=O)CN2CCCC(C)(C)C2)c2ccccc2n1C,x,x,-0.2,-1.5,x
CCCc1cc(C(=O)N2CCCC(Nc3ccc(C)c(C)c3)C2)n(C)n1 (centres undefined),x,x,-2.0,1.0,x
C/C(=N\OCC(=O)Nc1c(C)cc(C)cc1C)c1ccc2c(c1)OCCO2,-10.5,17.3,2.2,5.3,4.3%
N#Cc1ccc(-c2ccc(F)cc2)nc1Sc1ccccc1,-32.2,-4.7,-4.8,19.1,-0.7%
Cc1nc2cc(NC(=O)N3CCC(c4ccccc4)C3)ccc2n1C (centres undefined),-21.2,-3.5,x,-0.7,-9.1%
O=C1CN(C(=O)COC(=O)c2ccccc2NCc2ccco2)c2ccccc2N1,-13.2,5.3,0.8,-1.4,2.3%
Fc1cccc(Cl)c1Cn1nnc2c(-n3ccnc3)ncnc21,-53.4,4.5,16.6,-4.5,9.1%
Cc1cc(C)c(C)c(S(=O)(=O)Nc2ccc(OCC(=O)O)cc2)c1C,-41.6,4.2,-1.7,4.7,-2.8%
Cn1c(=O)cc(SCC(=O)N2CCN(c3ccccn3)CC2)c2ccccc21,-28.4,-4.2,1.4,-5.7,-4.5%
CCN(CC)CCC#CC(O)(c1ccccc1)C1CCCCC1 (centres undefined),x,-7.2,-0.3,4.7,-2.2%
O=C(COC(=O)c1ccc[n+]([O-])c1)Nc1c(Br)cc([N+](=O)[O-])cc1Br,x,8.9,2.8,5.1,0.2%
O=C(Cc1ccc(-n2c(=O)c3sccc3n(CC(=O)Nc3ccccc3F)c2=O)cc1)NCc1ccco1,x,-3.4,0.5,-0.3,-10.9%
CC(C)c1nc(CNC(=O)C2CCC(=O)N(CCc3ccc(Cl)cc3)C2)no1 (centres undefined),x,x,0.9,u,x
Cn1cc(S(=O)(=O)NCc2ccco2)c(=O)n(C)c1=O,-46.5,-0.9,-0.6,-8.6,7.6%
CCOC(=O)C1(CC)NC(c2ccc(N(C)C)cc2)C2C(=O)N(C)C(=O)C21 (centres undefined),-39.6,7.5,x,0.4,-15.2%
O=S(=O)(c1ccc(-c2n[nH]c(=S)o2)cc1)N1CCCC1,x,x,3.5,-3.1,x
COc1ccc(CN2C(=O)NC(=O)/C(=C/c3ccc(OC)c(OC)c3OC)C2=O)cc1,x,x,4.0,-3.2,-1.4%
O=C(NC1CC1)c1sccc1-n1cccc1,-12.9,4.1,-3.0,3.5,2.0%
O=S1(=O)N=C(N2CCCc3ccccc32)c2ccccc21,-39.3,-0.5,-3.2,3.7,3.0%
CC(C)C(=O)NC(NC1CCS(=O)(=O)C1)C(Cl)(Cl)Cl (centres undefined),x,14.0,-3.7,6.1,0.0%
Cc1ccccc1C(=O)NC(=S)Nc1ccc(S(=O)(=O)N2CCOCC2)cc1,-6.6,-0.9,-1.3,9.0,5.8%
CCCC(=O)N1CC2(CCC)CN(C(=O)CCC)CC(CCC)(C1)C2=O,-41.7,1.8,1.5,-0.9,-1.4%
COCCn1c(SCC#N)nnc1-c1ccc(OC)cc1,-46.2,0.1,-0.6,-3.6,-2.6%

Single records, from the list above.
Listed for CC(C)C(=O)NC(NC1CCS(=O)(=O)C1)C(Cl)(Cl)Cl (centres undefined) → YopH PTP inh = x; Arbovirus inh = 14.0; RecA splice inh = -3.7; Mtb bLac sens = 6.1; Mtb H37Rv = 0.0%
Listed for CCOC(=O)C1(CC)NC(c2ccc(N(C)C)cc2)C2C(=O)N(C)C(=O)C21 (centres undefined) → YopH PTP inh = -39.6; Arbovirus inh = 7.5; RecA splice inh = x; Mtb bLac sens = 0.4; Mtb H37Rv = -15.2%

Further entries.
canonical_smiles,YopH PTP inh,Arbovirus inh,RecA splice inh,Mtb bLac sens,Mtb H37Rv
O=C1C2C3C=CC(CNS(=O)(=O)c4ccccc4)(O3)C2C(=O)N1c1ccc(Cl)cc1 (centres undefined),-21.7,11.4,-2.9,1.7,9.1%
CC(C)n1cnc2c(Nc3cccc(Cl)c3)nc(N(CCO)CCCO)nc21,x,x,6.5,98.1,6.1%
CC(=O)N1CCCc2cc(S(=O)(=O)NCCC3=CCCCC3)ccc21,-15.4,10.5,1.8,-4.3,3.4%
CC1C(C#N)=C(N)OC2=C1C(=O)CCC2 (centres undefined),-1.3,2.5,3.7,8.3,-3.9%
O=C(N/N=C\c1ccc([N+](=O)[O-])o1)c1cncc(Br)c1,x,x,14.6,99.9,u
CCCCNC(=O)CC(=O)Nc1ccccc1C(=O)O,0.8,5.6,-1.4,2.2,-10.4%
O=C(CCCCCn1nnc2ccccc2c1=O)Nc1ccccc1Cl,x,x,0.2,-11.4,x
Cc1ccc(-n2[nH]c(C)c(/C=N/Nc3ccc([N+](=O)[O-])cc3[N+](=O)[O-])c2=O)cc1C,13.8,-24.2,4.2,7.5,-2.1%
N#CCCn1c(=O)n(CCC#N)c2ccccc21,x,4.3,-1.3,-0.5,-4.6%
O=C(O)c1cc2c(ccc3ccccc32)oc1=O,-11.9,0.9,-27.9,-4.7,-9.3%
O=C(Oc1oc(-c2ccco2)nc1C=Nc1ccccc1)c1ccoc1,-22.8,-1.9,3.0,1.9,5.0%
CCN(CC)CCC#CC1(O)c2ccccc2-c2ccccc21,x,x,1.9,-1.6,x
O=C(C1CCN(S(=O)(=O)c2ccccc2[N+](=O)[O-])CC1)N1CCOCC1,x,2.4,0.1,-4.2,-2.2%
COc1ccccc1-c1cc(C(F)(F)F)nc(S(=O)(=O)CCCC(=O)O)n1,-24.6,9.2,23.7,u,-1.1%
COc1ccc(CC2C(=O)NC(=O)NC2=O)c(OC)c1,7.8,-1.2,-0.8,0.4,-8.7%
O=C(O)c1cc(-c2ccc(/C=C3\NC(=O)N(c4ccc(Cl)cc4)C3=O)o2)ccc1Cl,x,58.1*,-36.9,0.8,5.1%
Cc1oc2cc(Br)c(O)c(Br)c2c1-c1ccccc1,x,x,23.1,7.6,x

An excerpt of these results, with each value named:
> O=C(O)c1cc(-c2ccc(/C=C3\NC(=O)N(c4ccc(Cl)cc4)C3=O)o2)ccc1Cl
- YopH PTP inh = x
- Arbovirus inh = 58.1*
- RecA splice inh = -36.9
- Mtb bLac sens = 0.8
- Mtb H37Rv = 5.1%

> Cc1oc2cc(Br)c(O)c(Br)c2c1-c1ccccc1
- YopH PTP inh = x
- Arbovirus inh = x
- RecA splice inh = 23.1
- Mtb bLac sens = 7.6
- Mtb H37Rv = x
